Bioassay records deposited in PubChem by National Center for Advancing Translational Sciences (NCATS).
Vaccinia mCherry: qHTS for Stage-Specific Inhibitors of Vaccinia Orthopoxvirus: mCherry Reporter Primary qHTS; Potency, µM (series often up to 36.5 µM), inactives show at the top dose activity change, negative = inhibition, hits mostly inhibitors; Vaccinia virus mCherry reporter infection, fluorescence; about a quarter of the inactives have no number; actives 0.63% (n = 310,000); active = well fitted inhibition curve with a large enough effect; inconclusive = small, poorly fitted or top-dose-only effect; inactive = no such curve, though single readings can be large or run the other way; tested in A549 cells; also: nearly all actives have a fitted effect of over 35% in size; inactives centre near -10
VACV Venus inh: qHTS for Stage-Specific Inhibitors of Vaccinia Orthopoxvirus: Venus Reporter Primary qHTS; Potency, µM (titrated, usually from 36.5 µM), for the others: top-dose activity change, negative = inhibition, most hits filed as inhibitors; actives 0.46% (n = 330,000); Vaccinia virus Venus reporter expression, fluorescence; active means well fitted inhibition curve with a large enough effect; inconclusive means small, poorly fitted or top-dose-only effect; inactive means no such curve, though single readings can be large or run the other way; tested in A549 cells; also: nearly all actives have a fitted effect of over 30% in size; inactives centre near -10
* marks the source's active call; other numbers are inactive results; i = inactive; ? = inconclusive; nt = no result given; & = joins results of further samples; [ ] = dose if it differs, or a comment. % is scaled to controls: 0 for no effect and ±100 for the full control effect; potency is read from the fitted curve at half-maximal effect.

SMILES	Vaccinia mCherry	VACV Venus inh
O=C1CCS/C(=N\N=C\c2ccc(Cl)cc2Cl)N1	-15%	-21%
CC1(c2ccc(OC(F)F)cc2)NC(=O)N(CC(=O)NC2CCCCC2)C1=O (centres undefined)	-8%	0%
O=S(=O)(Nc1ccc2[nH]ncc2c1)c1ccccc1Cl	-10%	-5%
Cc1cc(C)c2cc(C(=O)Nc3ccccc3)[nH]c2c1	-6%	-21%
O=C(Nc1ccc(Nc2ccccc2)cc1)N1CCOCC1	-7%	4%
CCCCCn1c(=O)[nH]c2cc(C(=O)NC3CCN(Cc4ccccc4)CC3)ccc2c1=O	-12%	-16%
Cn1c(=O)[nH]c(=O)c2c1nc(NCCc1ccccc1)n2Cc1ccc(F)cc1	-14%	6%
N#CCCN(CC(=O)O)S(=O)(=O)c1ccccc1	-23%	-19%
CCN(CC)S(=O)(=O)c1ccc(C(=O)OCC(=O)Nc2sc3c(c2C#N)CCCCC3)cc1	-1%	-16%
CCCCN(CC)CCNC(=O)CCC(=O)Nc1ccc2nc(N3CCN(C)CC3)cc(C)c2c1	?	-15%
O=C(CSCc1nc2c(nnn2Cc2ccc(F)cc2)c(=O)[nH]1)Nc1c(Cl)cc(Cl)cc1Cl	i	4%
Nc1c(NCCc2ccccc2)c2ccccc2oc1=O	?	-8%
Cc1ccccc1-c1cc(C(=O)NCc2ccc(OC(F)(F)F)cc2)nn1CC1CC(c2cccc([N+](=O)[O-])c2)=NO1 (centres undefined)	-26%	?
O=C(N=C1SC2CS(=O)(=O)CC2N1c1cccc(Cl)c1)C1CCCO1 (centres undefined)	-13%	-15%
COc1ccc(F)cc1S(=O)(=O)N1CCN(C(=O)c2ccco2)CC1	-16%	-4%
CC(C)(C)c1ccc(-c2nnc(SCC(=O)NCC3CCCO3)n2N)cc1 (centres undefined)	-5%	-12%
N#C/C(=C\c1ccc(Cl)cc1)c1nc2ncccc2[nH]1	nt	-24%
COC(=O)c1ccc(Cl)cc1NC(=O)N1CCC(CN2CCC(C)CC2)CC1	-7%	4%
Cc1ccccc1OCC(=O)OCC(=O)NCc1ccc2c(c1)OCO2	-27%	3%
Cc1cccc(NC(=O)c2cccc3c2-c2ccccc2C3=O)n1	-13%	4%
Cc1cc(NC(=O)c2ccco2)ncc1NC(=O)Cc1ccccc1	-5%	-3%
COc1ccc(NC(=O)Cn2nnc(C(=O)NCc3cccs3)c2N)cc1	-12%	-2%
CNC(=O)c1ccsc1NC(=O)c1ccc(S(=O)(=O)N2CCCc3ccccc32)cc1	?	?
C=CC[C@@H](Cc1ccc(F)cc1)C(=O)OC[C@H]1CCCN1C(=O)[C@H](CC=C)CC(=O)N[C@H](CO)Cc1ccccc1	?	?
Cc1ccc(CNC(=O)CNS(=O)(=O)c2cccc3nsnc23)cc1	nt	-3%
CCCOc1ccc(C2C(=O)N(C3CCCCCC3)CC(=O)N2Cc2ccccc2OC)cc1OC (centres undefined)	-12%	-6%
Cc1cccc(NC(=O)N2CCC(n3c(C)nc4cccnc43)CC2)c1	-10%	-14%
CC(=O)C1=C(O)C(=O)N(CCCn2ccnc2)C1c1ccc(C)cc1 (centres undefined)	-11%	-2%
Cc1ccc(Nc2cc(C)nc3ccccc23)c(C)c1	i	-23%
O=C(Nc1ccc(F)cc1)c1cccc(N2CCCS2(=O)=O)c1	-9%[7.34 µM]	-1%[7.34 µM]
C=CCNCc1cccn1-c1ccccc1	i	-2%
COc1cc(C(=O)NC(c2ccc(Cl)cc2)c2cc(Cl)c3cccnc3c2O)cc(OC)c1OC (centres undefined)	16µM*	?
O=S(=O)(c1ccccc1Br)N(Cc1ccccc1)CC(O)COCc1ccccc1 (centres undefined)	-18%	-28%
Cc1ccc(N(Cc2cc3ccc(C)cc3[nH]c2=O)S(C)(=O)=O)c(C)c1	-14%	-14%
CC1(C(=O)NS(=O)(=O)c2ccccc2)CCN1C(=O)CCc1ccc(Cl)cc1Cl (centres undefined)	31%[activator]	-6%
O=S(=O)(CCN1CCN(c2ccccc2O)CC1)c1ccc(Cl)cc1	?	?
O=S1(=O)CC(N2CCN(Cc3ccccc3F)CC2)CN1Cc1cn(Cc2ccc(C(F)(F)F)cc2)nn1 (centres undefined)	-16%	-11%
CC(=O)Nc1cccc(NC(=O)/C=C/c2ccc(S(=O)(=O)N3CCOCC3)cc2)c1	i	-9%
Clc1cccc(CSc2ncnc3c2ncn3C2CCCCO2)c1 (centres undefined)	i	-20%
CCOCCn1ccc2c(OCC(=O)NCc3ccc(F)cc3)cccc2c1=O	-5%	0%
OC1(c2cccnc2)CCN(Cc2ccc3c(c2)CN(Cc2cccc4nccnc24)CCO3)CC1	-23%	-15%
COc1ccc(Cl)cc1N1C(=O)C2CCCN2C1c1cccc(F)c1 (centres undefined)	-3%	-3%
c1ccc(Cn2nnc3c(NCc4ccc5c(c4)OCO5)nc(C4CC4)nc32)cc1	-10%	-8%
O=C(Cc1ccccc1)NCC(=O)N1CCC1	-8%	-23%
COc1cc(NC(=S)NC(=O)c2ccccc2C)ccc1NC(=O)c1cccs1	?	-25%
COc1cc2ccccc2cc1C(=O)N1CCN(c2nc3c(F)cc(F)cc3s2)CC1	-9%	-3%
Cn1cc(S(=O)(=O)N2CCN(c3ccccc3)CC2)c(=O)n(C)c1=O	i	-9%
CC12CCC(=O)N1C(C(=O)NNC(=O)c1cccc(Cl)c1)CS2 (centres undefined)	-3%	-6%

Sorted by length of the SMILES (low to high): part of the list above
SMILES	Vaccinia mCherry	VACV Venus inh
Clc1cccc(CSc2ncnc3c2ncn3C2CCCCO2)c1 (centres undefined)	i	-20%
COc1cc(NC(=S)NC(=O)c2ccccc2C)ccc1NC(=O)c1cccs1	?	-25%
COc1cc2ccccc2cc1C(=O)N1CCN(c2nc3c(F)cc(F)cc3s2)CC1	-9%	-3%

Returning to the listing, starting seven compounds before the break.
SMILES	Vaccinia mCherry	VACV Venus inh
COc1ccc(Cl)cc1N1C(=O)C2CCCN2C1c1cccc(F)c1 (centres undefined)	-3%	-3%
c1ccc(Cn2nnc3c(NCc4ccc5c(c4)OCO5)nc(C4CC4)nc32)cc1	-10%	-8%
O=C(Cc1ccccc1)NCC(=O)N1CCC1	-8%	-23%
COc1cc(NC(=S)NC(=O)c2ccccc2C)ccc1NC(=O)c1cccs1	?	-25%
COc1cc2ccccc2cc1C(=O)N1CCN(c2nc3c(F)cc(F)cc3s2)CC1	-9%	-3%
Cn1cc(S(=O)(=O)N2CCN(c3ccccc3)CC2)c(=O)n(C)c1=O	i	-9%
CC12CCC(=O)N1C(C(=O)NNC(=O)c1cccc(Cl)c1)CS2 (centres undefined)	-3%	-6%
CCOC(=O)c1ccc(NC(=S)N(Cc2cccnc2)Cc2ccco2)cc1	i	-13%
COc1ccccc1Cc1c(-c2ccccc2)nc2ccc(Cl)cn12	2%	-6%
O=C(COC(=O)CNC(=O)c1ccc(Cl)cc1Cl)Nc1cccc(S(=O)(=O)N2CCCC2)c1	-21%	-11%
Cc1ccc2c(c1)N(C(=O)N1CCC(C(=O)NCCC3=CCCCC3)CC1)CC(C)O2 (centres undefined)	8%	2%
CCC1CCCCN1C(=O)c1cccc(S(=O)(=O)Nc2cc(C(F)(F)F)ccc2Cl)c1 (centres undefined)	-20%	-9%
O=C(NCC1CCCN(Cc2ccc3nonc3c2)C1)c1cccc(C(F)(F)F)c1 (centres undefined)	-21%	-7%
O=C1CCCC(O)=C1N=Nc1ccc2c(c1)OCO2	-6%	-2%
CCCCNC(=O)c1ccc2c(c1)NC(=O)C(C(C)C)N2 (centres undefined)	1%	-4%
CCN(C1CCCCC1)S(=O)(=O)CCNC(=O)c1ccc2c(c1)OCO2	-16%	-13%
C[C@]12CC[C@@H]3c4ccc(OS(=O)(=O)O)cc4CC[C@H]3[C@@H]1CCC2=O	i	-12%&-9%
CCc1cccc(CC)c1NC(=O)Cc1csc(C)n1	7%	6%
NCCC(=O)NC[C@H]1O[C@@H](n2cnc3c(N)ncnc32)[C@H](O)[C@@H]1O	i	-6%
COc1ccc(C(C)NC(=O)C2CCN(CCOc3ccc(Cl)cc3Cl)CC2)cc1OC (centres undefined)	-22%	-7%
COC(=O)C1=C(C)N(Cc2ccccc2)C(=NCc2cc(OC)c(OC)c(OC)c2)N[C@H]1c1ccc(Br)cc1	-13%	?
Cc1[nH]c(C)c(S(=O)(=O)N2CCCCC2)c1C(=O)N1CCCCC1	i	-9%
CC(=O)Nc1ccc(S(=O)(=O)NCCc2csc3nc(-c4cccc(C)c4)nn23)cc1	-8%	-8%
COc1ccc2nc(NC(=O)Cc3cccs3)sc2c1	nt	?
COc1cccc(NC(=O)Cn2c(=O)n(-c3ccc(C)cc3)c(=O)c3ccccc32)c1	-9%	-17%
COc1cc(OC)c(CN2CCCCCCC2)cc1Br	-9%	4%
CCC1CCc2c(sc(NC(=O)C3CC=CCC3C(=O)O)c2C#N)C1 (centres undefined)	i	-9%
COc1ccccc1-n1cc(C(=O)NCC(=O)NCc2ccc(F)cc2)c2ccccc2c1=O	i	-8%
COc1ccc(-n2c(=O)c(CCC(=O)N3CCN(c4ccccc4O)CC3)nc3ccccc32)cc1	-15%	-16%
CCOc1ccc(CCNC(=O)c2ccc(NC3=NC4CS(=O)(=O)CC4S3)cc2)cc1 (centres undefined)	-4%[7.34 µM]	8%[7.34 µM]
COc1cc(=O)n2c(c1C(=O)N(C)Cc1cscn1)CCN(C(=O)c1cccc(C)c1C)CC2	i	-10%
CN1N=C(C(=O)N2CCCC(N3CCN(c4ccc(F)cc4)CC3)C2)CCC1=O (centres undefined)	i	-7%
Cc1ccc(CCNc2nc3ccccc3c3nc(-c4cccnc4)nn23)cc1	i	-8%
NC(=O)c1cccc(-c2cnc(N)c(C(=O)c3cccnc3)n2)c1	6.3µM*	?
O=C(c1ccco1)N1CCCN(Cc2nc(Cc3ccccc3)no2)CC1	-1%	9%
N/C(=N\OC(=O)CC1CCCCC1)c1cccc([N+](=O)[O-])c1	-13%	10%
CCCC(c1nnnn1Cc1ccco1)N1CCN(c2cc(Cl)ccc2C)CC1 (centres undefined)	-30%	-13%
Cc1cccc(OCC(=O)Oc2ccc(Cl)cc2)c1	i	-6%
COc1ccc(-c2cc(OC(=O)c3ccccc3)c3c(C)oc(C)c3c(=O)c2)cc1OC	-7%	44%[activator]
O=C1CC2c3ccccc3C1C1C(=O)N(Cc3ccccc3)C(=O)C21 (centres undefined)	i	5%
O=C(O)c1cc(O)c2c(c1)[C@H]([C@H]1c3cc(C(=O)O)cc(O)c3C(=O)c3c(O[C@@H]4O[C@H](CO)[C@@H](O)[C@H](O)[C@H]4O)cccc31)c1cccc(OC3O[C@H](CO)[C@@H](O)[C@H](O)[C@H]3O)c1C2=O (some centres undefined)	i	-14%
Cc1ccc(C(=O)Nc2c[nH]c(=O)[nH]c2=O)cc1	-1%	-15%
Cc1ccc(C(=O)C(C)OC(=O)c2cc(=O)[nH]c3ccccc23)cc1 (centres undefined)	-29%	-23%
Cc1cccc(N(C(=O)CCC(=O)Nc2cc(C)on2)C(C(=O)NC2CCCC2)c2ccccc2)c1 (centres undefined)	-29%	-18%
C=CCNC(=O)c1cccn1-c1ccsc1C(=O)OC	nt	-4%
COc1cc(OC)c(C(=O)Nc2ccc(C(=O)c3ccccc3)cc2)cc1OC	10%	-7%
CC[C@@H](CCC=C(C)C)C(=O)N(Cc1ccccc1)c1ccccc1	-25%	-5%
COc1ccc(CC(=O)NCc2nnc(SCCOc3ccccc3)n2C)cc1	nt	6%
CCn1c(COc2ccc3c(c2)OCO3)nnc1SCC(=O)c1ccccc1	nt	-16%
Cc1ccc(S(=O)(=O)N(Cc2ccccc2)c2ccccn2)cc1[N+](=O)[O-]	?	-12%
S=c1[nH]nc(C2CCCCC2)n1/N=C/C=C/c1ccccc1	-16%	-8%
COC(=O)N/N=C(\C)c1ccc(-n2ccnc2)cc1	i	-3%
Cc1cc(C(=O)N/N=C/c2cc(Br)cc(Br)c2OC(=O)c2cccc(F)c2)n[nH]1	?	-15%
Cc1cc(CSc2ccccc2)ccc1NC(=O)c1ccc(CN2CCOCC2)cc1	-24%	-28%
O=C(Nc1ccccc1)c1cc2ccccc2o1	-29%	-26%
COc1ccc(Cn2c(=O)[nH]c3cc(C(=O)NCCCN4CCCCC4)ccc3c2=O)cc1	-8%	-26%
CCc1cccc(NC(=O)CCS(=O)(=O)c2ccc(C)cc2)c1	-3%	-9%
CCOC(=O)c1ccc(NC(=S)NCCC2=CCCCC2)cc1	-1%	-8%
CCCCCCCCCCCCCCCC[n+]1cccc2ccccc21	10µM*	10µM*

Full records as entered above. Order of screens: Vaccinia mCherry | VACV Venus inh
Listed for CCOC(=O)c1ccc(NC(=S)NCCC2=CCCCC2)cc1 → -1% | -8%
Listed for CCCCCCCCCCCCCCCC[n+]1cccc2ccccc21 → 10µM* | 10µM*
Listed for CCc1cccc(NC(=O)CCS(=O)(=O)c2ccc(C)cc2)c1 → -3% | -9%
Listed for COc1ccc(Cn2c(=O)[nH]c3cc(C(=O)NCCCN4CCCCC4)ccc3c2=O)cc1 → -8% | -26%
